Source: PubChem BioAssay
Mtb hypoxia rep: inhibitors of hypoxia-regulated fluorescent reporter in Mycobacterium tuberculosis. M. tuberculosis hypoxia-regulated fluorescent reporter, fluorescence. fluorescence inhibition, % (test concentration not listed). hit rate 0.1% among 300,000;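 active = 35 to 45% if threefold the growth effect, above 45% if 1.5-fold the growth effect; inactive = the rest, general growth blockers included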;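 also: wells of about 50 µL received 100 nL stock; 0% = vehicle wells and 100% = reference inhibitor wells; whole bacteria with a GFP reporter of the hypoxia response; strong numbers were not always called active; many hits fall short of the cut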
Bead autofluor: compound fluorescence in toxin protease inhibitor counterscreen. compound autofluorescence counterscreen, microsphere flow cytometry; stronger effect = higher value. fluorescence intensity (concentration not given with the values). hit rate 3.1% among 360,000. AID 624483;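 active = at least 3 SD above the mean of all compounds, about 16000 in these data; inconclusive = too few beads counted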;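 also: 100 nL of 1 mM stock went into each well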
PrP 5UTR inh: inhibition of PrP 5' UTR reporter expression. cell-based PrP 5' UTR mRNA reporter, plate reader. inhibition, % (no concentration beside the values). hit rate 0.35% among 340,000;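 active = every replicate at 50% or more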;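 also: 0 = median of the neutral control wells; tested in H4 reporter cells; numbers are from one replicate; inactives centre near -14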
BJeLR lethal: kills HRASV12-expressing BJeLR cells; BJeLR (HRASV12) viability, CellTiter-Glo ATP luminescence, 48 h; reference of the scale not given here; hit rate 0.17% among 300,000; inhibition, % (concentration not given with the values);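 active = replicate mean above 50%; inconclusive = above 50% but judged a plate artefact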;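 also: 50 nL library stock added to about 25 µL; numbers are from one replicate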
RN4220 kill: kills Staphylococcus aureus RN4220. S. aureus RN4220 growth, OD600, 16 h. inhibition, % (no concentration beside the values). hit rate 0.33% among 330,000;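 active = z-score of -3 or lower and OD600 up to 0.18 on both plates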;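 also: plate controls were untreated cells for no effect and reference antibiotic for full effect; stock transfer was 100 nL into about 80 µL; one replicate is shown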
ugtP null kill: kills S. aureus RN4220 lacking UgtP. growth inhibition, % (concentration not given with the values). AID 1259309. hit rate 0.54% among 330,000. S. aureus RN4220 ugtP deletion, OD600 growth, 16 h; some inactives read as strong as hits;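 active = z-score under -3 and OD600 up to 0.15 on both plates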;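 also: plate controls were untreated wells for no effect and antibiotic for full effect; wells of about 80 µL received 100 nL stock; the first replicate is given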
Mtb hypoxia rep growth: further read-out of Mtb hypoxia rep, marked with its call; growth inhibition, %; measured here: M. tuberculosis growth (absorbance);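 0% = vehicle and 100% = reference antibiotic; read after six days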
The depositor's hits bear a star; u = inconclusive; x = no result given.

#	SMILES	Mtb hypoxia rep	Mtb hypoxia rep growth	Bead autofluor	PrP 5UTR inh	BJeLR lethal	RN4220 kill	ugtP null kill
1	CN(c1ccccc1)S(=O)(=O)c1ccc(C(=O)N2CCCC(C(F)(F)F)C2)cc1 (configuration not stated)	0	1	4520	5	-6	1.4	-3
2	CCCCN1C(=S)NCC1Cc1ccc(O)cc1 (configuration not stated)	20	7	x	x	x	5.0	6
3	CC(C)=C1SC(N2CCOCC2)=NC1=O	x	x	4008	0	8	-0.4	4
4	CCOc1ccc(-c2c(C(=O)N/N=C/C3CC=CCC3)nnn2-c2nonc2N)cc1 (configuration not stated)	x	x	5297	-12	2	x	x
5	CCOC(=O)C1CCN(CCC(=O)Nc2ccc(Cl)cc2)CC1	6	-1	3356	-4	1	-13	-6
6	COc1ccc(C2CC(=O)C=C(c3ccc4c5c(cccc35)CC4)C2)cc1 (configuration not stated)	1	2	x	x	x	-3.8	12
7	O=C(/C=C/c1ccccc1[N+](=O)[O-])N1CCc2ccccc2C1	-4	-2	3982	-18	3	4.4	5
8	CCOC(=O)C1=C(N)OC(C)=C(C(=O)OCCOC)C12C(=O)Nc1ccccc12 (configuration not stated)	6	3	10630	-21	-2	-1.1	-2
9	Nc1c(C(=O)NCc2ccco2)sc2nc3c(cc12)C(=O)CCC3	3	13	9471	-32	-27	-0.1	-11
10	COCCN1C(=O)N(c2cccc(C)c2)C(=O)C1CC(=O)Nc1ccc(F)cc1 (configuration not stated)	x	x	4767	17	x	0.9	5
11	CCOC(=O)c1c(C)nc2sc3c(=O)[nH]cnc3c2c1-c1ccc(OC)cc1	-5	0	2446	-9	-5	-0.8	-2
12	COC(=O)C1=C(Nc2ccccc2NC(=O)CCCC(=O)O)CSC1	2	10	4440	-14	-10	2.6	8
13	O=C(C1CCN(S(=O)(=O)c2ccccc2)CC1)N1CCCCC1	16	12	5171	-18	2	2.8	2
14	CCc1c(C)nc(SC)n(CC#N)c1=O	x	x	4557	-18	4	0.1	1
15	CC(C)(C)NC(=O)C(c1ccc(O)cc1)N(C(=O)CCC(=O)Nc1nccs1)c1ccccc1F (configuration not stated)	-3	3	2577	-5	-8	-0.6	-4
16	O=S(=O)(c1ccccc1)c1cnc(-c2cccnc2)nc1-c1ccc(Cl)cc1Cl	-1	1	9846	0	15	0.8	-14
17	COc1ccc(-c2cc(-n3c(C(F)(F)F)nc4ccccc43)n(CCC#N)n2)cc1	x	x	3594	5	1	7.9	9
18	CC(C)CCN1CC(=O)N2[C@@H](Cc3c([nH]c4ccccc34)C2(C)C)C1=O	5	6	4012	-3	4	2.9	-2
19	O=C(Cc1coc2cc3c(cc12)CCC3)OCc1cc(=O)n2c(n1)sc1ccccc12	10	3	9147	-28	-3	4.9	-3
20	O=[N+]([O-])c1cc(S(=O)(=O)c2ccc(O)c([N+](=O)[O-])c2)ccc1O	1	-3	2099	-9	9	3.4	7
21	CCN(CC(=O)NCc1ccc(Cl)cc1)C(=O)c1cc(S(=O)(=O)NCc2ccccc2)ccc1C	3	-3	4601	-17	9	3.1	12
22	O=C(Nc1ccc(F)cc1F)c1ccccc1-c1ccccc1	-5	-2	2106	-27	14	2.4	6
23	COC(=O)c1sc(-c2ccc(C(C)(C)C)cc2)cc1NC(=O)COCC(=O)O	12	15	3785	-58	0	9.4	0
24	CCCC(C(=O)NCCC(C)C)N(Cc1ccccc1Cl)C(=O)c1snc(C(N)=O)c1N (configuration not stated)	7	-3	2862	-19	-12	1.9	16
25	O=C(CCn1c(=O)sc2ccccc21)NCc1cccs1	7	-1	5196	-9	-6	2.2	7
26	O=C(Nc1ccccc1)Nc1cccc(NC(=O)Nc2ccccc2)c1F	7	-2	3179	-26	5	1.4	2
27	CN(C)/C=C(\C=[N+](C)C)c1[nH]ncc1[N+](=O)[O-]	2	4	4919	-21	6	-1.5	-2
28	COc1ccc(-c2cc(C(=O)NCCCn3ccnc3)no2)cc1	9	-1	4512	-61	4	7.9	1
29	Cn1c(NC(=O)Cc2ccc(F)cc2)cc(=O)n(C)c1=O	15	9	5640	-14	4	3.9	12
30	CC(=O)NC(CC(=O)OCC(=O)c1ccc(NC(=O)CC(C)C)cc1)c1ccccc1 (configuration not stated)	-5	7	8684	-12	x	-2.3	-4
31	CCS(=O)(=O)Nc1cc(C(=O)O)ccc1C	11	6	4199	-24	-1	3.1	10
32	COCCn1c(SCC(=O)N2CCCc3ccccc32)nnc1-c1ccco1	5	-1	15455	-13	-9	2.0	9
33	O=C(O)CC1NCCc2ccccc21 (configuration not stated)	-1	16	5458	6	-5	-1.6	-8
34	CCCc1cc(=O)[nH]c(SCc2ccc(C#N)cc2)n1	10	8	3605	-2	-3	5.9	-4
35	CCOc1ccc(Cc2onc3c2C(=O)CC(C)(C)C3)cc1OCC	-1	8	3130	-6	-5	5.2	3
36	Cc1nc(N2CCC(C)CC2)c2c(C)c(C(=O)Nc3ccc(C)c(F)c3)sc2n1	2	1	2604	-1	2	3.3	-36
37	CCCc1ccc(S(=O)(=O)N/N=C\c2ccc3c(c2)OCO3)cc1	x	x	5131	-21	0	x	x
38	CCOC(=O)c1c(C)[nH]c(C2=NNC(=Nc3ccccc3OC)SC2)c1C	-5	-10	2524	-93	-7	5.6	-1
39	COc1ccc(NC(=O)NCc2ccc3c(c2)OCO3)cc1OC	-1	5	5650	-5	7	-0.9	-4
40	O=C(C(c1ccccc1)C(O)(c1ccccc1)c1ccccc1)N1CCOCC1 (configuration not stated)	24	8	3165	-21	x	8.0	-2

Reformatted as labelled records: part of the list above.
(32) COCCn1c(SCC(=O)N2CCCc3ccccc32)nnc1-c1ccco1
  Mtb hypoxia rep = 5	Mtb hypoxia rep growth = -1	Bead autofluor = 15455	PrP 5UTR inh = -13	BJeLR lethal = -9	RN4220 kill = 2.0	ugtP null kill = 9
(33) O=C(O)CC1NCCc2ccccc21 (configuration not stated)
  Mtb hypoxia rep = -1	Mtb hypoxia rep growth = 16	Bead autofluor = 5458	PrP 5UTR inh = 6	BJeLR lethal = -5	RN4220 kill = -1.6	ugtP null kill = -8

Next part.
#	SMILES	Mtb hypoxia rep	Mtb hypoxia rep growth	Bead autofluor	PrP 5UTR inh	BJeLR lethal	RN4220 kill	ugtP null kill
41	COc1ccc(NC(=O)CC2(CC(=O)O)CCCC2)cn1	0	-17	3206	-6	-10	7.5	5
42	O=c1nc(N2CCOCC2)ccn1Cc1ccc(Br)cc1	-1	8	5418	-7	6	2.9	3
43	CCOc1ccc2[nH]c(=O)c(CN(CCCN3CCOCC3)C(=O)Nc3ccc(F)cc3)cc2c1	10	-3	4372	9	x	3.6	3
44	O=C(NN=Cc1c(Cl)[nH]c2ccccc12)c1sc2ccccc2c1Cl	-1	4	x	x	x	10	63
45	COc1cc(/C=N/NC(=O)C(C)Nc2n[nH]c(=O)[nH]c2=O)cc(OC)c1O (configuration not stated)	x	x	9570	-15	0	x	x
46	CC(Sc1n[nH]c(N)n1)C(=O)Nc1cccc(S(=O)(=O)N2CCOCC2)c1 (configuration not stated)	5	-11	3455	-6	7	-0.5	-2
47	C=CCOc1ccc(C2/C(=C(/O)c3ccc(OC)cc3)C(=O)C(=O)N2CCN2CCNCC2)cc1 (configuration not stated)	-4	4	3367	-18	9	-0.7	3
48	Oc1ccc(C(=S)N2CCCC2)cc1	4	-1	4095	-14	-6	2.4	5
49	CCCCN1C(=O)/C(=C/C=C2/C=Cc3ccccc3N2CC)SC1=S	9	10	3933	3	30	0.8	1
50	COc1ccc(NC(=O)C2CCCN(S(=O)(=O)c3cccc4nonc34)C2)cc1 (configuration not stated)	1	7	7427	-12	-1	1.5	1
51	COc1ccc(N2CCN(C(=O)Cn3c(=O)[nH]c4ccsc4c3=O)CC2)cc1	23	13	3131	1	-2	6.1	11
52	COC(=O)c1ccc(COC(=O)CCc2nc(-c3ccccc3)c(-c3ccccc3)o2)cc1	3	13	11801	-2	0	3.2	44
53	CCOC(=O)COn1c(=O)c(C)[n+]([O-])c2ccccc21	-4	0	7977	-9	7	1.9	-1
54	CCOc1ccc(NC(=O)C2CCN(S(=O)(=O)c3c(C)noc3C)CC2)cc1	8	-3	6257	-23	-7	-0.1	3
55	Cc1cccc(Cn2c(C)c(C)c3cc(C(=O)NCCN4CCOCC4)ccc32)c1	9	-2	4499	4	1	0.6	3
56	CN(C)c1ccc(-c2n(C)c3ccccc3[n+]2C)cc1	9	12	7281	-18	13	2.0	3
57	COc1cc(=O)[nH]c(SC(C)C(=O)Nc2cc(C)on2)n1 (configuration not stated)	0	6	5811	-19	0	-0.6	16
58	O=[N+]([O-])c1cccc(S(=O)(=O)Nc2ccc(-c3ccc(N4CCCC4)nn3)cc2)c1	1	-4	4954	-8	0	6.3	7
59	CCCCC(C(=O)NC1CCCC1)N(C(=O)c1snc(C(N)=O)c1N)c1ccc(OCC)cc1 (configuration not stated)	-7	-5	2953	-11	-5	3.2	-1
60	COc1ccccc1NC(=S)N(Cc1ccco1)Cc1cc2cc(C)c(C)cc2[nH]c1=O	-12	-7	2256	-49	23	2.6	-8
61	c1ccc(-c2nccc(-c3ccc(-n4cnc5ccccc54)cc3)n2)nc1	-1	10	3006	3	-12	3.5	-9
62	CC1CC(C)CN(C(=O)c2cc3ccccc3o2)C1 (configuration not stated)	2	-3	u	-25	-5	6.9	2
63	Cc1ccc(CNC(=O)Cc2ccc(-n3c(=O)[nH]c4ccsc4c3=O)cc2)cc1	5	1	10389	-28	18	0.4	-1
64	Cc1cccc2sc(NC(=O)CN(C)S(=O)(=O)c3cccs3)nc12	x	x	2421	-21	0	4.5	-3
65	Cc1ccccc1C(=O)N/N=C1/SCC(=O)N1Cc1ccccc1	x	x	1925	-20	-1	x	x
66	COc1ccc(S(=O)(=O)Nc2ccc(Cc3ccncc3)cc2)cc1C	7	3	6454	-19	-8	1.9	2
67	Nc1cc(=O)[nH]c(N2CCN(c3ccccc3)CC2)n1	1	9	2555	-19	6	4.9	5
68	CCCC(C#Cc1cc(OC)cc(OC)c1)=C1c2ccccc2C(=O)N1c1ccccc1	7	6	x	x	x	-0.3	2
69	CCOC(=O)N1CCN(C(=O)c2ccc(N(Cc3ccc(Cl)cc3)S(C)(=O)=O)cc2)CC1	-6	-1	3652	-18	-7	5.4	13
70	Cn1c(=O)c2c(O)c(Cc3ccccc3)c(=O)n(C)c2n(C)c1=O	3	10	x	-18	-3	3.0	-2
71	S=C1NCCNC(=S)NCCOCCOCCN1	2	-3	3677	-27	7	4.2	6
72	NC(=O)Cn1cc(C(=O)c2ccccc2)c2ccccc21	-2	-2	x	-13	-1	0.9	5
73	O=C(COC(=O)c1ccco1)NC1CCCc2ccccc21 (configuration not stated)	8	0	5647	-21	x	2.8	1
74	CN1C(=O)N(C)C(c2cccc([N+](=O)[O-])c2)C2=C1CCCC2=O (configuration not stated)	1	1	6064	-20	1	1.8	2

Random draw from the library; about 3.9% have a hit in one of these screens.
